DUX4 inh = blocks DUX4-driven transcriptional activation; 293T-iDUX4 ZSCAN4-Gaussia luciferase reporter, 24 h; active compounds read low; activity change, negative = inhibition, % (test concentration not listed); AID 1224904; 37,000 tested, 0.8% active;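 active = -10% or lower and over 25 points stronger than a control reporter; inconclusive = -10% or lower with a smaller gap; inactive = above -10%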;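 note: 0% = median of neutral control wells and -100% = median of positive control wells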
DUX4 inh difference = second read-out of DUX4 inh, no call of its own (marks repeat the call); Gaussia minus Italica difference, %; measured here: selective DUX4 reporter inhibition;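 worked out from the two reporters; negative = selective loss of the DUX4 reporter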
DUX4 inh control = recorded beside DUX4 inh, whose call it bears; activity change, negative = inhibition, %; measured here: Italica tet-on control reporter;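 0 = neutral control and -100 = positive control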
An asterisk follows results filed as active; ? = inconclusive; · = not tested or not shown; & = joins results of further samples. These rows are one share of the data (hit frequency here may not be typical).

SMILES | DUX4 inh | DUX4 inh difference | DUX4 inh control
CCS(=O)(=O)N1CCCCN2[C@H](CO)[C@H](c3ccc(-c4ccccc4)cc3)[C@@H]2C1 | 1 | -6 | 6.9
COC(=O)N(C)C[C@H]1OCc2cn(nn2)CCCC(=O)N([C@H](C)CO)C[C@H]1C | 6 | 3 | 3.2
C[C@@H]1CN([C@@H](C)CO)C(=O)CCCn2cc(nn2)CO[C@H]1CN(C)Cc1ccc(C(=O)O)cc1 | -2 | -6 | 4.0
OC[C@@H]1[C@H](c2ccc(-c3ccc(F)cc3)cc2)[C@@H]2CN(Cc3ccncc3)CCCCN12 | -10 | -7 | -2.5
O=C([C@H]1[C@H](CO)[C@H]2Cn3c(ccc(C4=CCCC4)c3=O)[C@H]2N1Cc1nccs1)N1CCOCC1 | 6 | 1 | 5.1
O=S(=O)(c1cccc(F)c1)N1[C@@H]2CNC[C@H]1C2c1ccc(-c2cccnc2)cc1 (stereo partly drawn) | -1&10 | -10&1 | 9.2&8.9
CN(C)CC(=O)N1[C@H](CO)[C@@H](c2ccccc2-c2ccc(C(=O)N(C)C)cc2)[C@@H]1C#N | 17 | 8 | 9.1
CCCNC(=O)C[C@H]1CC[C@@H]2[C@H](COC[C@H](O)CN2S(=O)(=O)c2ccccc2F)O1 | 19 | 13 | 6.5
COc1ccc(NC(=O)Nc2ccc3c(c2)[C@H]2C[C@H](CC(=O)NC4CCCCC4)O[C@H](CO)[C@H]2O3)cc1 | 13 | 7 | 6.2
Cc1noc(C)c1S(=O)(=O)N(C)C[C@@H]1Oc2ccc(NC(=O)c3ccncc3)cc2CC(=O)N([C@@H](C)CO)C[C@@H]1C | -4 | 1 | -4.5
COc1ccc2c3c([nH]c2c1)[C@@H](CO)N(Cc1ccncc1)CC31CCN(Cc2ccc(-c3ccccn3)cc2)CC1 | ? | · | ·
COc1cccc(S(=O)(=O)Nc2ccc3c(c2)[C@@H]2C[C@H](CC(=O)NCc4ccccc4F)O[C@H](CO)[C@@H]2O3)c1 | -2 | -1 | -1.7

Grouped by structure: those above containing a halogen.
SMILES | DUX4 inh | DUX4 inh difference | DUX4 inh control
OC[C@@H]1[C@H](c2ccc(-c3ccc(F)cc3)cc2)[C@@H]2CN(Cc3ccncc3)CCCCN12 | -10 | -7 | -2.5
O=S(=O)(c1cccc(F)c1)N1[C@@H]2CNC[C@H]1C2c1ccc(-c2cccnc2)cc1 (stereo partly drawn) | -1&10 | -10&1 | 9.2&8.9
CCCNC(=O)C[C@H]1CC[C@@H]2[C@H](COC[C@H](O)CN2S(=O)(=O)c2ccccc2F)O1 | 19 | 13 | 6.5
COc1cccc(S(=O)(=O)Nc2ccc3c(c2)[C@@H]2C[C@H](CC(=O)NCc4ccccc4F)O[C@H](CO)[C@@H]2O3)c1 | -2 | -1 | -1.7

(more compounds)
SMILES | DUX4 inh | DUX4 inh difference | DUX4 inh control
COCC(=O)Nc1ccc2c(c1)C(=O)N(C)[C@H]1CC[C@H](CC(=O)NCCc3ccccc3)O[C@H]1CO2 | -2 | 1 | -2.1
COc1ccc2c3c(n(C)c2c1)[C@H](CO)N(C(=O)NC1CCCC1)CC31CN(C(C)=O)C1 | 19 | 7 | 13
CCCC(=O)N1CCC2(CC1)CN(C(=O)C1CCC1)[C@H](CO)c1[nH]c3cc(OC)ccc3c12 | 11 | 0 | 11
CC(C)NC(=O)N1CCCCN2[C@@H](CO)[C@@H](c3ccc(C#C[C@H](C)O)cc3)[C@@H]2C1 | -3 | -5 | 2.2
OC[C@H]1[C@H](c2ccc(-c3cccc(F)c3)cc2)[C@@H]2CN(CCC(F)(F)F)CCCCN12 | -47* | -28* | -19*
O=C(C[C@H]1CC[C@@H]2[C@H](COC[C@H](O)CN2Cc2nccs2)O1)NCc1ccccc1F | -1 | 6 | -7.0
O=C(Nc1cccc(F)c1)N1[C@@H]2CNC[C@H]1C2c1ccc(-c2cncnc2)cc1 (stereo partly drawn) | 9 | 22 | -13
C[C@H](CO)N1C[C@H](C)[C@@H](CN(C)S(=O)(=O)c2ccc3ccccc3c2)OCc2cnnn2CCCC1=O | 0 | 5 | -4.9
O=C(C[C@H]1CC[C@H]2[C@@H](COC[C@H](O)CN2C(=O)Nc2ccc(F)cc2)O1)NC1Cc2ccccc2C1 | 6 | 3 | 3.4
O=C(C[C@@H]1C=C[C@H](NC(=O)c2ccncc2)[C@@H](CO)O1)NCC1CC1 | -8 | -10 | 1.5
Cc1ccccc1-c1ccc(C2[C@H]3CNC[C@@H]2N3S(=O)(=O)Cc2ccccc2)cc1 (stereo partly drawn) | 8 | 11 | -3.4
COc1cccc(C#Cc2ccc3c(c2)O[C@H](CN(C)C(=O)c2ccccn2)[C@@H](C)CN([C@@H](C)CO)S3(=O)=O)c1 | 3 | 3 | -0.1
C[C@H]1CN([C@@H](C)CO)C(=O)c2cccc(NC(=O)C3CCOCC3)c2O[C@@H]1CN(C)Cc1ccncc1 | -1 | -4 | 3.5
N#Cc1ccc(-c2ccc([C@H]3[C@@H](CO)N4C(=O)CNC[C@H]34)cc2)cc1 | 12 | 10 | 1.7
CCCNC(=O)N1CCC2(CC1)CN(C(=O)NC1CCCC1)[C@@H](CO)c1[nH]c3cc(OC)ccc3c12 | 8 | 9 | -1.7
CCCC#Cc1ccc([C@H]2[C@H]3CN(C(=O)NCCC)CC(=O)N3[C@H]2CO)cc1 | 13 | 3 | 10
COc1cccc(S(=O)(=O)Nc2ccc3c(c2)[C@@H]2C[C@H](CC(=O)NCC(F)(F)F)O[C@H](CO)[C@@H]2O3)c1 | 7 | 7 | -0.3
Cc1ccccc1S(=O)(=O)N1CCCCN2[C@H](C1)[C@@H](c1ccc(-c3cccnc3)cc1)[C@@H]2CO | -5 | 11 | -15
Cc1ccccc1-c1ccccc1[C@H]1[C@@H](C#N)N(C(=O)c2ccc(F)cc2)[C@H]1CO | ? | · | ·
Cc1noc(C)c1S(=O)(=O)N(C)C[C@@H]1Oc2c(NC(=O)c3ccc(-c4nccs4)cc3)cccc2C(=O)N([C@H](C)CO)C[C@@H]1C | -2 | -2 | 0.5
O=C(N[C@H]1C=C[C@H](CC(=O)N2CCN(c3ccccc3)CC2)O[C@@H]1CO)c1ccccc1 | -4 | -6 | 2.3
CCCNC(=O)N1CC2(C1)[C@@H](c1ccccc1)[C@H](CO)N2C(=O)CC1CC1 | 1 | -8 | 8.7
C[C@@H]1CN([C@@H](C)CO)C(=O)c2cccc(NC(=O)c3ccncc3)c2O[C@@H]1CN(C)S(=O)(=O)c1ccccc1 | -1 | 2 | -2.7
CN(C)C(=O)c1ccc(-c2ccc([C@H]3[C@H](CO)N4C(=O)CN(C(=O)CC5CC5)C[C@@H]34)cc2)cc1 | 11 | 2 | 9.5
O=C(C[C@@H]1CC[C@H]2NC[C@@H](O)COC[C@@H]2O1)NCc1ccc2c(c1)OCO2 | -2 | 0 | -1.6
COc1ccc(NC(=O)N2CC(=O)N3[C@@H](CO)[C@H](c4ccc(-c5ccc(C)cc5)cc4)[C@@H]3C2)cc1 | -6 | -6 | 0.4
COc1ccc2c3c([nH]c2c1)[C@@H](CO)N(C(=O)CC1CC1)CC31CCN(Cc2cncnc2)CC1 | 4 | 12 | -8.8
CCCC#Cc1ccc([C@H]2[C@H]3CN(S(=O)(=O)Cc4ccccc4)CC(=O)N3[C@H]2CO)cc1 | -6 | -3 | -2.7
CN(C)CC#Cc1ccc([C@@H]2[C@@H](CO)N3CCCCN(C(=O)NC4CCCC4)C[C@H]23)cc1 | 19 | 7 | 12
COc1ccc2c3c(n(C)c2c1)[C@H](CO)N(C(C)=O)CC31CCN(Cc2ccc(Cl)cc2)CC1 | ? | · | ·
C[C@H]1CN([C@@H](C)CO)S(=O)(=O)c2ccc(C#CC3(O)CCCC3)cc2O[C@H]1CN(C)C(=O)Nc1cccc(F)c1 | -10 | 2 | -12
COc1ccc(S(=O)(=O)N(C)C[C@H]2Oc3cc(-c4ccccc4OC)ccc3S(=O)(=O)N([C@H](C)CO)C[C@@H]2C)cc1 | 0 | 1 | -0.9
C[C@H](CO)N1C[C@H](C)[C@@H](CN(C)Cc2ccc(Oc3ccccc3)cc2)Oc2ccc(N(C)C)cc2C1=O | 1 | 2 | -1.1
Cc1cccc(S(=O)(=O)N2CC[C@@H]3[C@H](CO)Nc4ccc(-c5ccccc5F)cc4[C@@H]32)c1 | ? | · | ·
COC(=O)[C@H]1[C@H](CO)[C@H]2Cn3c(ccc(-c4ccncc4)c3=O)[C@H]2N1CC1CCCCC1 | -5 | 1 | -6.3
CCCNC(=O)N1CC(=O)N2[C@H](C1)[C@H](c1ccc(-c3cccc(C)c3)cc1)[C@@H]2CO | 3 | -1 | 3.8

A portion of the results above, as a working copy:
SMILES | DUX4 inh | DUX4 inh difference | DUX4 inh control
C[C@H]1CN([C@@H](C)CO)C(=O)c2cccc(NC(=O)C3CCOCC3)c2O[C@@H]1CN(C)Cc1ccncc1 | -1 | -4 | 3.5
N#Cc1ccc(-c2ccc([C@H]3[C@@H](CO)N4C(=O)CNC[C@H]34)cc2)cc1 | 12 | 10 | 1.7

Three compounds from above, arranged by the number in DUX4 inh control, descending.
SMILES | DUX4 inh | DUX4 inh difference | DUX4 inh control
COc1ccc2c3c(n(C)c2c1)[C@H](CO)N(C(=O)NC1CCCC1)CC31CN(C(C)=O)C1 | 19 | 7 | 13
COC(=O)N(C)C[C@H]1OCc2cn(nn2)CCCC(=O)N([C@H](C)CO)C[C@H]1C | 6 | 3 | 3.2
CC(C)NC(=O)N1CCCCN2[C@@H](CO)[C@@H](c3ccc(C#C[C@H](C)O)cc3)[C@@H]2C1 | -3 | -5 | 2.2

Further compounds:
SMILES | DUX4 inh | DUX4 inh difference | DUX4 inh control
Cc1nn(C)cc1NC(=O)C[C@@H]1CC[C@H]2[C@H](COc3ccc(NC(=O)C4CCOCC4)cc3C(=O)N2C)O1 | -1 | 0 | -0.4
O=C(c1cccc(F)c1)N1CCCCN2[C@H](CO)[C@H](c3ccc(C#CC4(O)CCCC4)cc3)[C@H]2C1 | ? | · | ·
CCCNC(=O)N1CC2(CCN(C(=O)CN(C)C)CC2)c2c(n(C)c3cc(OC)ccc23)[C@H]1CO | 23 | 10 | 13
CNC[C@@H]1OCc2cn(nn2)CCCC(=O)N([C@@H](C)CO)C[C@H]1C | 3 | 3 | 0.5
O=C(CN1CCOCC1)N1CCCCN2[C@H](C1)[C@H](c1ccc(/C=C/c3ccccc3)cc1)[C@@H]2CO | ? | · | ·
O=C(C[C@H]1CC[C@@H]2[C@H](COC[C@@H](O)CN2Cc2cccc(Cl)c2)O1)NCC1CCCCC1 | ? | · | ·
CN(C)CC(=O)N1CCCCN2[C@H](C1)[C@H](c1ccc(-c3ccccc3)cc1)[C@@H]2CO | 13 | 3 | 9.6
CC(C)NC(=O)N1CCCCN2[C@H](C1)[C@@H](c1ccc(C#C[C@@H](C)O)cc1)[C@@H]2CO | 18 | 5 | 12
CCCC(=O)Nc1ccc2c(c1)C(=O)N(C)[C@H]1CC[C@@H](CC(=O)OC)O[C@H]1CO2 | 2 | -1 | 2.1
CCCNC(=O)N1[C@H](CO)[C@@H]2c3ccccc3N(C(=O)c3ccncc3)C[C@@H]21 | 0 | -1 | 1.0
CO[C@H]1CN(C)C(=O)c2cc(NC(=O)CC(F)(F)F)ccc2OC[C@@H](C)N(C(=O)C2CCCCC2)C[C@@H]1C | -1 | 2 | -2.9
COc1ccc2c3c([nH]c2c1)[C@H](CO)N(S(=O)(=O)c1ccc(C)cc1)CC31CCN(Cc2nccs2)CC1 | -3 | -17 | 14
CCS(=O)(=O)Nc1ccc2c(c1)C(=O)N(C)[C@H]1CC[C@H](CC(=O)OC)O[C@H]1CO2 | 2 | 1 | 0.8
COc1ccc(C#Cc2ccc3c(c2)O[C@H](CN(C)S(=O)(=O)c2ccccc2F)[C@H](C)CN([C@@H](C)CO)S3(=O)=O)cc1 | -1 | -4 | 2.1
O=C(c1cccc(F)c1)N1CC[C@@H]2[C@H](CO)Nc3ccc(C#CC4CC4)cc3[C@@H]21 | 6 | 1 | 4.7
O=C(C[C@H]1CC[C@H]2NC[C@@H](O)COC[C@@H]2O1)NCCN1CCCCC1 | 3 | 4 | -0.3
C/C=C/c1ccc([C@@H]2[C@H](CO)N[C@H]2CN(CC)C(=O)CN2CCOCC2)cc1 | 0 | -1 | 0.6
CN1[C@@H]2Cn3c(ccc(-c4ccncc4)c3=O)[C@H]1[C@@H](C(=O)NCCc1ccccc1)[C@@H]2CO | -2 | 0 | -2.6
CCC(=O)N1C[C@H](O)COC[C@@H]2O[C@H](CC(=O)NCC3CCCCC3)CC[C@H]21 | 5 | 6 | -0.8
C[C@H]1CNC(=O)[C@H](Cc2ccc(C(F)(F)F)cc2)CCn2nncc2COC1 | 4 | -3 | 7.4
CO[C@@H]1CN(C)C(=O)c2cc(NC(=O)c3cnccn3)ccc2OC[C@@H](C)N(C)C[C@@H]1C | 2 | 1 | 0.8
O=C(Nc1nccs1)[C@@H]1[C@@H](CO)[C@@H]2Cn3c(cccc3=O)[C@H]1N2C(=O)C1CC1 | 9 | 4 | 5.1
CCCN1[C@H](C(=O)OC)[C@@H](CO)[C@@H]2Cn3c(ccc(C4=CCCC4)c3=O)[C@@H]21 | -2 | -10 | 7.4
CCc1nc(N2[C@H](CO)[C@H](c3ccccc3-c3ccc(F)cc3)[C@@H]2C#N)sc1C | -1 | 4 | -5.1
C[C@@H]1CN([C@@H](C)CO)C(=O)c2ccccc2-c2ccccc2CO[C@H]1CN(C)C(=O)CCN(C)C | 11 | 3 | 7.9

Taken from above.
O=C(c1cccc(F)c1)N1CC[C@@H]2[C@H](CO)Nc3ccc(C#CC4CC4)cc3[C@@H]21 in DUX4 inh is listed with 6
C/C=C/c1ccc([C@@H]2[C@H](CO)N[C@H]2CN(CC)C(=O)CN2CCOCC2)cc1 in DUX4 inh is listed with 0
O=C(Nc1nccs1)[C@@H]1[C@@H](CO)[C@@H]2Cn3c(cccc3=O)[C@H]1N2C(=O)C1CC1 in DUX4 inh control is listed with 5.1

Screening results: PubChem BioAssay, Broad Institute
